# Bioassay records (PubChem BioAssay)
# TSHR ag – qHTS Assay for Agonists of the Thyroid Stimulating Hormone Receptor; HEK293-CNG-TSHR cells (CNG channel as cAMP sensor), membrane potential dye, cAMP; Potency, µM (highest dose often 57.1 µM), inactives show at the top dose activation, hits mostly activators; 73,000 compounds, 0.48% hits; AID 926, 2007; active = well fitted activation curve of enough size with the parental cells flat; inconclusive = any curve in the parental cells; inactive = parental cells flat and receptor cells flat or falling; also: potency is read from the fitted curve at half-maximal effect; % of control where 0% means no effect; weak receptor curves with flat parental cells got no call and are not listed
# Target sequence (P16473 whole entry, looked up): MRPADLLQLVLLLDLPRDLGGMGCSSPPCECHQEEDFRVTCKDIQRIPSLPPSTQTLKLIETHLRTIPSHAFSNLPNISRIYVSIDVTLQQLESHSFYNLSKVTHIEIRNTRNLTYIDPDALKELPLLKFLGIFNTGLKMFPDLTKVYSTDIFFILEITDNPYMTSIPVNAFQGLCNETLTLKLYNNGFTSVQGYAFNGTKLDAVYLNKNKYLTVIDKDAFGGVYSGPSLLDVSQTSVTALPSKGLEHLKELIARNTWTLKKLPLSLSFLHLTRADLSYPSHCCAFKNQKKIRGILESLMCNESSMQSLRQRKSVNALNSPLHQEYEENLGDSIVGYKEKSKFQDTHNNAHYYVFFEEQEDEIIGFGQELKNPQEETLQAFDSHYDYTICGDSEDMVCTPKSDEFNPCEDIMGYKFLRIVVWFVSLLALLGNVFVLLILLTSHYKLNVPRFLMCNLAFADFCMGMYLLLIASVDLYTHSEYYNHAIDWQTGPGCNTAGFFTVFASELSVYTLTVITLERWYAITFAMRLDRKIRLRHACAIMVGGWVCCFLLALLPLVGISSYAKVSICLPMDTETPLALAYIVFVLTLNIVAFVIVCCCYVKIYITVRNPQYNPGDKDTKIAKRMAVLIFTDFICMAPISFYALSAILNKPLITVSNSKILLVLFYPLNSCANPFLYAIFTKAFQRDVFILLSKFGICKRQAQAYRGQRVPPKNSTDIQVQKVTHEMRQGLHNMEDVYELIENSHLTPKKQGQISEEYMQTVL
#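 HEK 293 cells stably expressing TSHR and a cAMP-gated CNG channel; parental CNG-only cells as counterscreen. Cells preloaded 60 min with membrane potential dye plus 100 uM RO 20-1724, then compound 30 min; fluorescence read at 590 nm.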
# Resorufin autofl – qHTS Assay for Spectroscopic Profiling in Resorufin Spectral Region; 59,000 compounds, 0.04% hits; AID 588, 2007; Compound fluorescence, resorufin region 547/598 nm, buffer; hits give high values; max dye-equivalent concentration, M; active = above 10 nM dye equivalent; inconclusive = 1 to 10 nM; inactive = 1 nM or less; a few of its hits are not listed in these tables; also: highest value over a series up to 38 µM
#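 Tris 100 mM pH 8.0; compound added, 15 min RT; CCD imager read, ex 547 nm/em 598 nm; signal normalized to resorufin standard curve (six concentrations per plate) as dye-equivalent concentration.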
# A647 fluor – qHTS Assay for Spectroscopic Profiling in A647 Spectral Region; Compound fluorescence, A647 channel (570/671 nm), Tris buffer; max dye-equivalent concentration, M; 59,000 tested, under 10 active; active means above 1 µM dye equivalent; inconclusive means 0.1 to 1 µM; inactive means 0.1 µM or less;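 also: values scaled relative to a standard on each plate; highest value over a series up to 38 µM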
#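 Tris 100 mM pH 8.0; cpd + A647 stds pin-transferred; 15 min RT; CCD imager, ex 570/em 671. Output = A647-equivalent conc. per cpd conc.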
# AID923 – qHTS Assay for Allosteric/Competitive Inhibitors of Caspase-1: Spectroscopic Profiling in AFC Spectral Region. compound fluorescence, AFC spectral region (405/520 nm); almost no hit is shown here. Potency, µM (highest dose often 57.5 µM), inactives show at the top dose fluorescence increase, usual class: activators. 75,000 compounds, 1.1% hits; active = well fitted activation curve with a large enough effect; inconclusive = small, poorly fitted or top-dose-only effect;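 also: potency is read from the fitted curve at half-maximal effect; 0% is about no effect; scaled to a free AFC standard on each plate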
#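 Baseline compound fluorescence (AFC region, 405 nm ex/520 nm em) taken from the intercept of kinetic reads with 50 nM caspase-1 and 5 uM Ac-WEHD-AFC; normalized to an on-plate AFC standard curve; compounds titrated up to 57 uM.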
# A488 fluor – qHTS Assay for Spectroscopic Profiling in A488 Spectral Region; 59,000 compounds, 0.1% hits; compound autofluorescence, A488 spectral region, dye equivalency; hits give high values; max dye equivalency, M; active = above 10 nM dye equivalent; inconclusive = 1 to 10 nM; inactive = 1 nM or less; about half of its hits are not listed in these tables;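 also: highest value over a series up to 38 µM; compound alone in buffer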
#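 Compound autofluorescence was read in 100 mM Tris pH 8.0 after 15 min at room temperature, ex 480 nm/em 540 nm. Intensities were converted to A488 dye-equivalent concentration using an on-plate six-point A488 standard curve.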
# * marks the source's active call; other numbers are inactive results; i = inactive; ? = inconclusive; . = no result given; & = joins results of further samples; [ ] = dose if it differs, or a comment.
# The first 5 compounds, to show the layout:
SMILES,TSHR ag,Resorufin autofl,A647 fluor,AID923,A488 fluor
Cc1ccc(/C(O)=C2\C(=O)C(=O)N(c3cc(C)on3)C2c2cccc(Cl)c2)cc1 (centres undefined),?,i,2.2e-08,0.1%,i
CCOC(=O)c1[nH]c2ccc(Br)cc2c1NC(=O)CNC,.,i,4.99e-08,.,i
COCCn1c(C)cc(C(=O)CSc2nnc(-c3cccnc3)n2-c2ccccc2F)c1C,2.0%,.,.,6.3%,.
C=CCn1c(-c2cc(OC)c(OC)c(OC)c2)n[nH]c1=S,.,i,7.7e-09,3.5%,i
N#CCCN1CCN(S(=O)(=O)c2ccc(S(=O)(=O)NC3CCCCC3)cc2)CC1,-7.1%,.,.,1.0%,.

# Main list, repeating the preview:
SMILES,TSHR ag,Resorufin autofl,A647 fluor,AID923,A488 fluor
Cc1ccc(/C(O)=C2\C(=O)C(=O)N(c3cc(C)on3)C2c2cccc(Cl)c2)cc1 (centres undefined),?,i,2.2e-08,0.1%,i
CCOC(=O)c1[nH]c2ccc(Br)cc2c1NC(=O)CNC,.,i,4.99e-08,.,i
COCCn1c(C)cc(C(=O)CSc2nnc(-c3cccnc3)n2-c2ccccc2F)c1C,2.0%,.,.,6.3%,.
C=CCn1c(-c2cc(OC)c(OC)c(OC)c2)n[nH]c1=S,.,i,7.7e-09,3.5%,i
N#CCCN1CCN(S(=O)(=O)c2ccc(S(=O)(=O)NC3CCCCC3)cc2)CC1,-7.1%,.,.,1.0%,.
Cc1cccc(C(C)C)c1-n1nnnc1-c1ccccc1,?,.,.,-0.9%,.
CC(=O)c1c(N2CCN(c3cccc(Cl)c3)CC2)nc(=S)n(-c2ccccc2)c1C,-1.2%,i,5.2e-09,1.7%,i
O=c1c2cccnc2[nH]c(=S)n1CCC1=CCCCC1,-2.2%,i,1e-09,-0.2%,i
CC1=C(C(N)=O)C(c2ccccn2)n2nc(-c3ccccc3Cl)nc2N1 (centres undefined),3.2%,.,.,4.3%,.
Cc1ccc(C2c3c(oc4ccccc4c3=O)C(=O)N2c2nnc(C)s2)o1 (centres undefined),-0.7%,i,2.8e-08,2.8%,i
CCn1nnc(NC(=O)c2ccccc2Br)n1,?,i,5.7e-09,0.4%,i
CC(C)C[C@H](NC(=O)[C@@H](O)[C@@H](N)Cc1ccccc1)C(=O)O,?,i,4.6e-08&1e-09,-3.3%&1.3%,i
CCC(=O)N/C(=N/c1nc(C)cc(C)n1)Nc1cccc(OC)c1,?,.,.,-2.1%,.
Cc1cccc(/C=C\c2ccccc2)n1,?,i,5.6e-09,-3.3%,i
CC1=C(C(=O)OCC2CCCO2)C(c2cccc(O)c2)NC(=O)N1 (centres undefined),-1.1%,.,.,2.6%,.
Cc1cc(N2CCN(S(=O)(=O)c3ccccc3)CC2)c2ccccc2n1,-12.2%[11.4 µM],.,.,0.4%,.
COC(=O)COc1cccc(NC(=O)c2cccs2)c1,0.2%,i,3.4e-09,-1.0%,i
Cn1c(=O)c2cnc(N3CCOCC3)nc2n(C)c1=O,1.0%,i,1.64e-08,4.5%,i
COc1ccc(NC(=O)C2CCCN2S(=O)(=O)c2ccc3c(c2)CCC(=O)N3)c(OC)c1 (centres undefined),13.0%,.,.,1.9%,.
CC(=O)Nc1cccc(NC(=O)C2CCCN2C(=O)Nc2cccc(C)c2)c1 (centres undefined),?,i,1.99e-08,-0.7%,i
O=C(Nc1ccccc1)N1CCn2c1nc1ccccc12,19.4%,i,1.8e-09,-3.0%,i
COC(=O)[C@@]1(Cc2ccc(F)cc2)[C@H]2c3cc(C(=O)N4CCCC4)n(Cc4cc(C)n(C)n4)c3C[C@H]2CN1C(=O)c1ccccc1,?,.,.,0.1%,.
O=C(CCc1ccc(S(=O)(=O)N2CCCCC2)cc1)c1nnc(-c2ccccc2)o1,0.7%[11.4 µM],i,3.27e-08,0.6%,i
CCc1ccccc1NC(=O)c1ccoc1C,-3.1%,i,5.1e-09,-1.1%,i
CCOc1cc(C2C3=C(CCCC3=O)NC3=C2C(=O)CCC3)cc(Cl)c1O,-0.2%,i,3.9e-09,2.3%,i
Cc1ccc(C)c(N2CCN(C(=O)CCS(=O)(=O)c3cccc4nonc34)CC2)c1,-13.5%,i,1.78e-08,1.2%,i
COc1ccc(C2C(C(=O)NCC3CCCO3)c3cc(OC)c(OC)cc3C(=O)N2C)cc1OC (centres undefined),?,i,2e-08,0.3%,i
Cc1cc(C(=O)NCCN2CCN(c3cccc(Cl)c3)CC2)n(-c2ccccc2)n1,7.8%,.,.,0.5%,.
CC(=O)NC(=O)NC1OC(=O)C(Cl)=C1Cl (centres undefined),-11.1%,i,1e-09,-1.3%,i
COc1ccc(CCNC(=O)COC(=O)c2cnc(C)cn2)cc1OC,6.7%,i,2.27e-08,0.7%,i
COc1cc(OC)nc(NC(=O)CSc2nnc(-c3ccccc3)n2C2CCCCC2)n1,1.7%,i,3.87e-08,-2.6%,i
CCCCc1c(O)nc(SCC(=O)Nc2ccc3c(c2)CCC3)[nH]c1=O,-7.1%,i,7e-09,2.1%,i
O=c1c2ccccc2oc2nc(-c3ccco3)n(CCc3ccccc3)c(=O)c12,-7.5%,i,9.6e-09,-0.8%,i
c1cncc(Nc2nc(-c3cccs3)cs2)c1,7.7%,i,1e-09,0.5%,i
O=S(=O)(NCc1csc(-c2cccnc2)n1)c1cccs1,-1.5%,.,.,0.6%,.
Cc1sc2ncnc(N3CCCCC3C)c2c1C (centres undefined),?,i,1e-09,0.1%,i
CCOCCOC(=O)COc1ccc(N2C(=O)c3ccccc3C2=O)cc1,-18.8%[11.4 µM],.,.,-0.1%,.
CCOC(=O)c1ccc(N2C(=O)CC(SCC(N)C(=O)OCC)C2=O)cc1 (centres undefined),?,i,2.4e-09,-1.4%,i
Cc1nc(N)sc1-c1csc(N(C)c2ccc(O)cc2)n1,-13.0%,i,1.6e-09,-2.6%,i
Cc1cc(C)nc(NS(=O)(=O)c2ccc(NC(=O)CCC3COc4ccccc4O3)cc2)n1 (centres undefined),4.7%,i,1.39e-08,-4.2%,i
Cc1cc(C)c2c(N)c(S(=O)(=O)c3ccccc3)sc2n1,-16.0%,i,1e-09,5.4%,i
Cc1csc2c(C#N)c(=O)c3c(n12)CCC3,2.6%,i,3.82e-08,10.7%,i
Clc1ccc(CSCCc2ccncc2)cc1Cl,8.9%[11.4 µM],i,4.57e-08,1.0%[11.5 µM],i
COc1ccc(-c2nnc(SC(C)C(=O)Nc3ccc4c(c3)OCCO4)o2)cc1 (centres undefined),-1.2%,i,4.63e-08,0.6%,i
O=C(c1cc(-c2ccccc2)on1)N1CCN(C(=O)c2ccco2)CC1,10.3%,i,4.41e-08,0.5%,i
COc1ccccc1-c1nc(N2CCOCC2)c2ccccc2n1,10.7%,i,1e-09,2.0%,i
c1cc(CNC2=NCCCCC2)ccn1,0.8%,i,1.56e-08,-1.5%,i
CCOC(=O)CSC1=C(C#N)C(c2ccc(C)cc2)C(C(=O)OC)C(=O)N1 (centres undefined),.,i,5.7e-09,.,i
CCOc1cccc(NC(=O)C2CC(=O)N(C)C(=Nc3ccccc3)S2)c1 (centres undefined),-23.7%,i,3.7e-08,-0.1%,i
CCCCCn1c(CN2CCN(C(=O)OCC)CC2)nc2c1c(=O)[nH]c(=O)n2C,-8.0%,i,1e-09,0.0%,i
CC(=O)N1CCN(Cc2cc(=O)n3cc(Cl)c(C)c(Cl)c3n2)CC1,-0.9%,i,9.5e-09,0.2%,i
CCOc1ccccc1N1C(=O)c2ccc(C(=O)O)cc2C1=O,1.5%,.,.,1.4%,.
COc1ccc(C(=O)O)cc1S(=O)(=O)N(C)CCc1cccnc1,-0.6%,i,1.7e-09,-0.5%,i
O=C(O)c1ccccc1C(=O)Nc1cc2c(cc1Br)-c1ccccc1C2=O,-8.9%[11.4 µM],i,5.65e-08,-1.1%[11.5 µM],i
COc1ccc(N2C(=O)CC(N3CCC(O)(c4cccc(C(F)(F)F)c4)CC3)C2=O)cc1 (centres undefined),-5.1%,.,.,0.8%,.
COc1ccc(CSc2n[nH]c(C)n2)cc1Br,-7.7%,.,.,1.6%,.
Cc1ccc(C2CC(=O)NC3=C2C(=O)CCC3)cc1Br (centres undefined),17.7%,i,4.08e-08,1.0%,i
CC(=O)c1c(N2CCN(C(=O)c3ccco3)CC2)nc(=S)n(-c2ccccc2)c1C,-3.7%,i,1.7e-09,-2.8%,i
Cc1nnc(NC(=O)CSC2CCCCC2)s1,?,.,.,-3.1%,.
COC(=O)C(C)n1cnc2c(nnn2-c2ccc(OC)cc2)c1=O (centres undefined),5.6%,i,1e-09,-2.2%,i

# Further compounds follow:
SMILES,TSHR ag,Resorufin autofl,A647 fluor,AID923,A488 fluor
O=C(COc1ccccc1)Nc1ccccc1N1CCCCC1,?,i,1e-09,1.6%,i
O=C(CSc1nnc(Cn2nnc(-c3ccccc3)n2)n1-c1ccccc1)Nc1ccccc1,15.1%,i,1e-09,-0.5%,i
CCOC(=O)N1CCN(C(=O)COc2ccc(S(=O)(=O)Nc3ccc(OCC)cc3)cc2)CC1,9.8%,i,4.77e-08,-1.7%,i
Cn1c(=O)n(CCN2CCOCC2)c(=O)c2c1nc1n2CCN1c1ccc(Oc2ccccc2)cc1,-1.9%,i,7e-09,0.5%,i
CCOC(=O)c1[nH]c(C)c(C(=O)OCc2c(C)noc2C)c1C,5.6%,i,5.31e-08,0.8%,i
O=C1CCCC2=C1C1(CCCCC1)N=C(Nc1nc3ccccc3o1)N2,-23.7%,i,6.2e-09,-1.6%,i
C=CCCCOc1ccc(C(=O)O)cc1,2.2%,i,1.09e-08,-0.2%,i
Cc1cccc(-c2noc(C3CCCCC3)n2)c1,1.8%,i,3.8e-09,-0.9%,i
CCOC(=O)N1CCC(NC(=O)CCCN2C(=O)CSc3ncccc32)CC1,-1.7%,i,4.5e-09,-1.1%,i
CC(C)=C1C2C=CC1C(C(=O)Nc1cc(C)ccc1C)C2C(=O)O (centres undefined),?,i,9.9e-09,-1.4%,i
COC(=O)[C@H](CCSC)NC(=O)Nc1ccc(C)cc1C,10.8%,i,1e-09,-1.6%,i
Cc1cc(C)cc(NC(=O)CSc2nnc(-c3ccccc3C)o2)c1,17.6%,i,1e-09,-2.3%,i
CCCC[C@@H]1CN2[C@H](c3ccc(Br)cc3)[C@H](C)CC[C@H]2C(=O)O1,?,.,.,-1.4%[11.5 µM],.
N#CC(=NCCO)C1=C(O)c2ccccc2C1=O,-8.1%[11.4 µM],i,2.8e-09,-0.5%[11.5 µM],i
Cc1cc(NC(=O)c2ccc(N(C)S(=O)(=O)c3ccccc3)cc2)no1,?,i,3.5e-09,-1.3%,i
CC(C)CC(c1nnnn1Cc1ccco1)N1CCN(c2cccc(Cl)c2)CC1 (centres undefined),?,i,5.2e-09,-1.7%,i
COc1ccccc1N1CCN(C(=O)C(Cc2ccccc2)NC(=O)C2CCCCC2)CC1 (centres undefined),0.4%[11.4 µM],i,4.52e-08,-1.7%,i
CCOC(=O)CCc1c(C)nc2ncnn2c1C,2.7%,i,8.5e-09,0.3%,i
Cc1ccc(NC(=O)CSc2nnc(-c3ccccc3Br)o2)cc1C,20.0%,i,1e-09,0.6%,i
COc1ccc2[nH]cc(CCNc3nc(-c4cccc(NS(C)(=O)=O)c4)nc4ccccc34)c2c1,-7.1%,i,1e-09,-0.9%,i
O=C(CSc1nnc(CNC(=O)c2cccs2)o1)NC1CCCC1,1.1%[11.4 µM],i,1.91e-08,0.4%,i
Cc1cc(N2CCCC2=O)cc(C)c1S(=O)(=O)NCCOc1ccccc1,25.0%,i,3.59e-08,-0.1%,i

# An excerpt; count on the stated rates, not on these rows.
